# Sfp PPTase inh: Sfp phosphopantetheinyl transferase inhibition. Biochemical Sfp PPTase activity, qHTS. Potency, µM, for inactives: max response, negative = inhibition, most hits filed as inhibitors. 3.5% of 310,000 active; active = well fitted inhibition curve with a large enough effect; inconclusive = small, poorly fitted or top-dose-only effect, or another doubt; inactive = no such curve, though single readings can be large or run the other way;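 note: the enzyme is Sfp with the accession as filed and its product quenches rhodamine fluorescence; potency is the fitted concentration of half-maximal effect; 0% = enzyme reaction without inhibitor and -100% = no enzyme wells; top concentration of the series not given in the record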
#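 Compounds were incubated with enzyme (final 15 nM) for 15 min at room temperature before substrate addition started the reaction. Fluorescence at 525 nm excitation, 598 nm emission was recorded immediately and after 30 minutes.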
# gsp antagonist: antagonists of gsp mutant (McCune-Albright syndrome) | Potency, µM (doses to about 76.9 µM), without a hit: top-dose activity change, negative = inhibition, actives largely listed as inhibitors | gsp-mutant cells, cAMP HTRF, 30 min; control for the full effect not named in the record | 0.4% of 340,000 active; active = falling curve of any shape with a large fitted effect; inconclusive = falling curve, mostly with a smaller effect; inactive = flat or rising curve; cell line not stated here;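 note: intracellular cAMP measured with PDE inhibitor Ro 20-1724 present during compound exposure; potency is the fitted concentration of half-maximal effect; % is set by controls: 0 for no effect and ±100 for the full control effect; nearly all actives have a fitted effect of over 65% in size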
#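 G418-selected cells were plated in DMEM/10% FBS for 16-24 h at 37C, then treated with compounds plus the PDE inhibitor […] (300 uM solution added) for 30 min at 37C. Intracellular cAMP was measured by HTRF after 30 min lysis at room temperature.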
# gsp agonist: agonists of gsp mutant (McCune-Albright syndrome); 0.13% of 340,000 active; AID 624287; gsp mutant cells, cAMP HTRF, 30 min; control for the full effect not named in the record; Potency, µM (highest dose often 76.9 µM), without a hit: at the highest dose activation (cAMP increase), hits mostly activators; active = well fitted activation curve with a large enough effect; inconclusive = small, poorly fitted or top-dose-only effect, or another doubt; inactive = no such curve, though single readings can be large or run the other way; cell line not stated here;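 note: phosphodiesterase inhibitor Ro 20-1724 added with compounds to block cAMP breakdown; potency is the fitted concentration of half-maximal effect; nearly all actives have a fitted effect of over 60% in size; about a fifth of the inactives were tested at one dose only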
#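 Cells in DMEM/10% FBS with G418 were pretreated with compounds in DMSO plus […] (300 uM stock) for 30 min at 37C. cAMP was measured by HTRF (cAMP-d2 plus anti-cAMP antibody-K) after 30 min at room temperature.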
# D2 PAM: human D2 receptor positive allosteric modulation | P14416 | DiscoveRx D2 beta-arrestin cells, luminescence, 90 min; 100% = 57 uM dopamine signal | potentiation, % (test concentration not listed) | 0.23% of 360,000 active | AID 624464; active = potentiation of 50% or more; inconclusive = 30% to 50%; inactive = 30% or less;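 note: compound concentration not given in the record; tested on top of an EC20 dose of dopamine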
#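 D2 cells co-treated with compound plus 50 nM dopamine (EC20) for 90 min at 37 deg C to detect potentiation. Beta-arrestin recruitment was read as enzyme-fragment luminescence after 1 h at ambient temperature. Full response was set by 57 uM dopamine.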
# ClpP mod: qHTS Assay for Activators of ClpP. purified B. subtilis ClpP, FRET peptide cleavage, 20 min. Potency, µM (highest dose often 57.5 µM), for the others: at the top dose activity change, negative = active. 1.9% of 340,000 active; active = well fitted falling curve with a large enough effect; inconclusive = small, poorly fitted or top-dose-only effect; inactive = no such curve, though single readings can be large or run the other way; note: potency is the fitted concentration of half-maximal effect; the source files actives as falling curves though it sought activators and does not explain the sign; nearly all actives have a fitted effect of over 65% in size; many hits overshoot -100%
# Target sequence (P80244 whole entry, looked up): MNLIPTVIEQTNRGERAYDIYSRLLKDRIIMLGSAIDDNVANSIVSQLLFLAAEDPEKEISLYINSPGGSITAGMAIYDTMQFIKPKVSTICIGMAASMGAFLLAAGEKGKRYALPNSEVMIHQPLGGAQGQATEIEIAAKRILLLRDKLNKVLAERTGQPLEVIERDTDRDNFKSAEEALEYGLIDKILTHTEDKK
#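 ClpP 10 microg/mL final, pH 8 Tris/KCl buffer with BSA, glycerol, Tween-20; compound pinned in; FRET-FV substrate; RT 20 min; Ex320/Em430; ΔFRET vs ADEP 5.8 microM, DMSO, no enzyme.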
# Menin MLL FP FL: displaces fluorescein MLL peptide from human menin. Fluorescence polarization, fluorescein-MLL peptide displacement from menin. 290,000 tested, under 10 active. FP activity change, % at 61.4 µM. AID 1766; inconclusive = falling polarisation curve, or a change in total fluorescence; inactive = total fluorescence flat and polarisation flat or rising; no compound was filed as active; the % refers to the polarisation; negative = inhibition;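 note: % of control where 0% means no effect; inhibitors lower the polarisation; unlabelled MLL peptide was the positive control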
# TRPV1 potentiator: potentiators of human vanilloid receptor 1 (TRPV1); potentiation, % at 8.33 µM; TRPV1-expressing cells, Fluo-8 calcium influx, capsaicin EC20 potentiation; host cell line not named in the record; control for the full effect not named in the record; 0.02% of 320,000 active; Q8NER1; active means potentiation above 80%; inconclusive means 30% to 80%; inactive means below 30%; note: 0% is about no effect
# Target sequence (Q8NER1 whole entry, looked up): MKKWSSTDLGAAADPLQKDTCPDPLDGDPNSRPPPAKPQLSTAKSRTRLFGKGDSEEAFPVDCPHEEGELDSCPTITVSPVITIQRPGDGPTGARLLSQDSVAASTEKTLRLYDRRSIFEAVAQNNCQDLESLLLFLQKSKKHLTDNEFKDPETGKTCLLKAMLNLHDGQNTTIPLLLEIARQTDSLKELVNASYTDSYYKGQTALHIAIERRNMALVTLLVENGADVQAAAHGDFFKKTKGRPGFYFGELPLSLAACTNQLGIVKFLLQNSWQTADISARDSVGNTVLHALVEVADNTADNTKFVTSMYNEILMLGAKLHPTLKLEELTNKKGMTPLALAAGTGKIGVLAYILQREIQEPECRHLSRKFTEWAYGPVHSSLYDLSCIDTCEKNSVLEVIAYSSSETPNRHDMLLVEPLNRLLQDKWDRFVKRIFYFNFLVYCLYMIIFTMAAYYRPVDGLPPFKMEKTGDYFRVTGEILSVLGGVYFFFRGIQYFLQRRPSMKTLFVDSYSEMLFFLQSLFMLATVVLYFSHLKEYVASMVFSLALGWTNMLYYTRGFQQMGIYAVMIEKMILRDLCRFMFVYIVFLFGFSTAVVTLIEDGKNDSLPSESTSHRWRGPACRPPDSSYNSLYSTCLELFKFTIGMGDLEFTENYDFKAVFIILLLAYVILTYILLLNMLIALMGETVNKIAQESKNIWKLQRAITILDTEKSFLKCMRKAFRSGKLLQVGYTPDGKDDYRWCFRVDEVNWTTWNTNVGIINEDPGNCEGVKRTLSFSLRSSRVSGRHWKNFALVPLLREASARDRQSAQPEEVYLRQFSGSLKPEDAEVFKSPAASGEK
#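 Fluo-8 calcium influx in TRPV1-expressing cells, kinetic read (ex 480/em 520 nm). Compound added and read 3 min for agonist activity, followed by capsaicin at EC20 final and 2 min further read for enhancement.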
# * hit, by the source's call; ? = inconclusive; . = not tested or not shown; [ ] = remark or other dose.
# Order of values: Sfp PPTase inh, gsp antagonist, gsp agonist, D2 PAM, ClpP mod, Menin MLL FP FL, TRPV1 potentiator
Cc1nn(C(C)C(=O)NCC2CCCO2)c(=O)c2c1sc1ccccc12 (stereo not given)
  12%, 16%, ?, -11, 3.1%, ., -11
CCOc1ccc2[nH]c(=O)c(CN(CCN3CCCC3)C(=S)Nc3ccccc3OCC)cc2c1
  -20%, -7%, -4%, -3, 1.8%, 3.4, -20
CCOc1c(Cl)cnn(-c2ccc(C)cc2)c1=O
  5%, 0%[15.4 µM], 0%, -10, 0.9%, 0.6, .
CCS(=O)(=O)N1CCC(NC(=O)C(Cc2ccc(OC)c(OC)c2)NC(C)=O)CC1 (stereo not given)
  -2%, 0%, -27%, 1, -0.8%, -2.5, 7
COc1ccccc1N1CCN(c2nc(-c3ccccc3)cc(C(F)(F)F)n2)CC1
  12%, 1%, 4%, 22, -1.5%, -2.9, -13
CC1=C(C(=O)OC(C)C)C(c2cncc(-c3ccc(F)cc3)c2)C(C#N)=C(N)O1 (stereo not given)
  -11%, -12%, -2%, -10, 1.3%, 13, -14
C=C1c2nc3ccccc3n2C=C(c2ccc(C)cc2)N1c1ccccc1
  ., 1%, -4%, ?, ?, ., .
COc1ccc(CCNS(=O)(=O)c2ccc(C(=O)NCc3ccco3)cc2)cc1OC
  -4%, -6%, 5%, 6, -1.7%, 5.3, 18
O=C(Nc1ccc(-c2nc3cccnc3s2)cc1)C1CCCO1 (stereo not given)
  2%, 2%, 30%, 1, 4.1%, -2.1, 5
CCCCC(=O)NC(=S)NNC(=O)CCc1ccccc1
  -28%, -1%, -3%, -14, -0.5%, 0.2, -6
CC(NC(=O)c1ccccc1Cl)c1nnc(SCC(=O)Nc2ccc(C(=O)O)cc2)n1C (stereo not given)
  15%, 11%, 4%, -3, 0.9%, 1.2, 18
CC(C)(c1ccccc1)c1ccc(OCCN2CCOCC2)cc1
  ?, 5%, 18%, -8, -1.7%, -4.1, -14
COC(=O)CCC(=O)N1CCC(Oc2cccc(C(=O)NCc3ccccn3)c2)CC1
  ., ., -49%[inhibitor], -6, 0.8%, ., .
Cc1[nH]c(-c2ccccn2)nc(=S)c1Cl
  40µM*, 10%, 5%[15.4 µM], -4, ., 3.5, -4
NC(=O)c1nsc(C(=O)N(CC(=O)NCc2ccccc2)c2cccc(F)c2)c1N
  3%, 9%, -6%[15.4 µM], -11, 0.0%, -0.6, 4
Cc1cc(C)cc(OCC(=O)Nc2ccc(CN3CCCCC3)cc2)c1
  -11%, 10%, 13%[15.4 µM], -7, -1.3%, 3.9, -4
CCCNS(=O)(=O)c1ccc(CCC(=O)N2CCN(CC)CC2)cc1
  5%, 4%, 11%, 1, -1.0%, 0.1, 1
CCOc1ccccc1NC(=O)C1COc2ccccc2O1 (stereo not given)
  6%, -9%, -25%, -23, -0.7%, 5.3, 13
N#Cc1cccc(CN2C=NS(=O)(=O)c3ccccc32)c1
  17%, -2%, -2%[15.4 µM], 2, ., 1.0, 6
COc1cc(CN2CCCC(CO)(Cc3ccccc3C)C2)cc2c1OCO2 (stereo not given)
  -1%, -15%, -11%, -23, 0.1%, 1.6, 12

# (list continues)
# Order of values: Sfp PPTase inh, gsp antagonist, gsp agonist, D2 PAM, ClpP mod, Menin MLL FP FL, TRPV1 potentiator
Cc1noc(C)c1CSCC(=O)Nc1ccc(S(C)(=O)=O)cc1
  ., -7%, 7%, -12, -1.5%, ., 2
Cc1nc(N(C)C)c2sc(=S)n(C)c2n1
  -28%, 0%, ?, 0, 0.1%, 2.5, .
c1ccc2c(-c3nc(C4CCCCC4)no3)cc(-c3ccncc3)nc2c1
  ?, 1%, -40%, -9, ?, 0.0, 16
CCOC(=O)C1=C(C)NC(=O)NC1C(C)C (stereo not given)
  ., 11%, -8%, -4, -1.6%, ., .
CCOc1ccc(S(=O)(=O)N2CCOCC2)cc1NC(=O)C1CCC1
  21%, 7%, 43%, -7, 2.2%, ., -7
COc1ccc(/C=N/NC(=O)c2cccc(C(F)(F)F)c2)cc1
  -22%, 12%, -9%[15.4 µM], -14, -0.8%, 0.5, -9
C=CCn1c(SCC(=O)N2c3ccccc3Sc3ccccc32)nnc1-c1ccco1
  -16%, -11%, -5%[15.4 µM], -4, ., 1.5, -4
COc1ccc(NC(=O)C2CCCN(S(C)(=O)=O)C2)cc1 (stereo not given)
  6%, 5%, -82%[inhibitor], 0, ., -11, 0
Cn1cc(S(=O)(=O)N2CCCC2)cc1C(=O)N1CCN(c2ccccc2)CC1
  3%, -12%, ?, -5, 0.9%, 0.1, 17
N#CCCN(C(=O)Nc1ccc(Cl)c(Cl)c1)C1CCCCC1
  ., ., -59%[inhibitor], -17, -2.9%, ., .
Cc1ccc(OCCC(=O)N(Cc2ccccc2)c2c(N)n(Cc3ccccc3)c(=O)[nH]c2=O)cc1
  ., -1%, -9%, -6, -3.6%, ., -25
N#CC(C#N)=C1C=CC=CN1/C(=C\c1ccco1)C(=O)c1ccccc1
  16µM*, 27%, ?, -48, 3.9%, -1.1, 2
COc1ccc(C(=O)Oc2cc(C)[nH]c(=O)c2[N+](=O)[O-])cc1
  2%, 4%, ?, 0, 0.2%, 2.1, 4
COc1ccc(-c2nc(CS(=O)(=O)CC(=O)NCCc3cc(OC)ccc3OC)c(C)o2)cc1
  -14%, -24%, 2%, -13, -13%, 6.2, 1
O=C(COC(=O)CNC(=O)c1ccc(Cl)cc1Cl)NCc1ccco1
  ., 5%, 8%[15.4 µM], 4, ?, ., -3
CCC12CCC3c4ccc(O)cc4CCC3C1CC(O)C2O (stereo not given)
  ., 13%, 16%, 5, 0.6%, ., .
Cc1cc(C)nc(SCc2ccc(C(=O)NNC(=O)Nc3cccc(Cl)c3)cc2)n1
  -17%, -5%, -2%, -14, 35µM*, 6.1, -11
COC(=O)N=Nc1c(O)[nH]c2ccc(Br)cc12
  9%, -2%, -14%[15.4 µM], -15, ., -1.0, -27
CS(=O)(=O)c1ccc2nc(NC(=O)Oc3ccccc3)sc2c1
  12%, 24%, 9%, 6, 0.3%, 2.4, 2
O=C(c1ccc(CNS(=O)(=O)c2ccc(F)cc2)cc1)N1CCCCCC1
  ., ., -1%, -6, 0.5%, ., .

# An excerpt from above with just D2 PAM and gsp agonist.
smiles	D2 PAM	gsp agonist
COc1ccc(C(=O)Oc2cc(C)[nH]c(=O)c2[N+](=O)[O-])cc1	0	?
COc1ccc(-c2nc(CS(=O)(=O)CC(=O)NCCc3cc(OC)ccc3OC)c(C)o2)cc1	-13	2%
O=C(COC(=O)CNC(=O)c1ccc(Cl)cc1Cl)NCc1ccco1	4	8%[15.4 µM]

# Copied from the list:
# D2 PAM result of `COc1ccc(/C=N/NC(=O)c2cccc(C(F)(F)F)c2)cc1` : -14
# TRPV1 potentiator result of `COc1ccc(NC(=O)C2CCCN(S(C)(=O)=O)C2)cc1` (stereo not given) : 0
# gsp agonist result of `c1ccc2c(-c3nc(C4CCCCC4)no3)cc(-c3ccncc3)nc2c1` : -40%

# Next part:
# Order of values: Sfp PPTase inh, gsp antagonist, gsp agonist, D2 PAM, ClpP mod, Menin MLL FP FL, TRPV1 potentiator
O=C1Nc2ccccc2N(O)N1c1ccc(Cl)cc1
  20%, 7%, 7%[15.4 µM], -2, ., 0.0, 5
COc1ccccc1S(=O)(=O)N(C)C[C@H]1Oc2cc(C#CCC3CCCC3)ccc2S(=O)(=O)N([C@H](C)CO)C[C@H]1C
  ., ., -123%[inhibitor], -3, -5.2%, ., .
COc1ccc2c(c1)CC/C2=N\OC(=O)c1ccccc1C
  ?, ., 8%[15.4 µM], -12, ., -7.4, -9
COc1cccc(NC(=O)Cn2c3ccc(F)cc3c3nc4n(c(=O)c32)CCS4)c1
  -11%, ?, 27%, -7, 3.7%, ., 9
O=C1CS/C(=N\C(=O)N2c3ccccc3Sc3ccccc32)N1
  -15%, ?, -2%, ?, -1.4%, 20, 10
COCCn1c(SCC(=O)Nc2ccccc2)nc2c(oc3ccccc32)c1=O
  4%, 3%, -44%[inhibitor], -5, -1.7%, 2.3, -2
COc1ccc(N2C[C@H](Cc3ccccc3)[C@@H](CC(=O)Nc3ccccc3)C2=O)cc1
  ., ., ?, 0, 0.7%, ., .
CCN(CC(=O)Nc1c(F)cccc1F)C(=O)CNC(=O)c1ccco1
  ., 5%, -9%[15.4 µM], -2, ., ., 22
Cc1ccc(C(=O)NNC(=O)c2ccc(NC(=O)C(C)(C)C)cc2)cc1
  22%, -18%, 0%, 2, -2.8%, -5.0, 3
CC(=O)c1cccc(NC(=O)CSc2nc(=O)n(CCN3CCOCC3)c3c2CCCC3)c1
  ., -30%, -7%[15.4 µM], 1, ., ., 0
NCCSc1c(-c2ccccc2)[nH]c2ccccc12
  ?, 6%, -65%, -20, 3.8%, -5.0, -2
CCCCCCCC(=O)N/N=C/c1ccc(Br)cc1
  -9%, 7%, 4%, 0, 0.4%, 2.3, -6
CC1CN(C(=S)NC(=O)c2ccc(Cl)cc2)CC(C)O1 (stereo not given)
  -11%, 0%, 5%, -6, 1.3%, ., 0
NC(=NCCc1ccc(Cl)cc1)NS(=O)(=O)c1ccc(F)cc1
  6%, -1%, -55%[inhibitor], -21, 2.5%, 11, 5
O=C(NCc1cccnc1)C(=O)Nc1ccc2c(c1)OCO2
  -1%, 15%, 0%[15.4 µM], -4, 1.1%, -3.0, 12
COc1ccc(C(=O)N=C2CCC(C#N)=C3c4cc(OC)c(OC)cc4CCN23)cc1
  17%, 0%, ?, -6, 1.3%, -2.3, 7
CCc1c(C)nc2[nH]nc(-c3ccccc3C)n2c1=O
  -1%, -12%, -2%, -25, ?, 1.4, -15
COc1cc(C(=O)NCC(=O)Nc2c(C)cccc2C)ccc1OCC(=O)N1CCOCC1
  ., 2%, -3%[15.4 µM], -18, -1.6%, ., .
CCC12CC3CC(C1)CC(C(=O)O)(C3)C2
  8%, 7%, 15%, -8, 1.1%, -2.6, 10
NNC(=O)c1ccccc1OCc1ccccc1
  -5%, -8%, ?, -16, -2.2%, 21, -3
COc1ccc2nc(C)cc(NCc3ccc(F)cc3)c2c1
  -7%, 8%, 7%[15.4 µM], -7, ., ?, 10
Cc1onc(-c2ccccc2Cl)c1C(=O)Nc1cccc(-c2nc3ncccn3c2C)c1
  11%, 7%, 2%, 4, ?, -0.6, 25
CCc1ccc(N2C(=O)CC(NNc3nc4ccccc4s3)C2=O)cc1 (stereo not given)
  -12%, 2%, 3%, 13, -0.6%, 3.5, -6
